TsaE inh – qHTS Assay for Inhibitors of YjeE; tRNA threonylcarbamoyladenosine biosynthesis protein TsaE (Escherichia coli (strain …; purified YjeE, fluorescence polarisation of a bound ADP probe; Potency, µM; actives 0.05% (n = 71,000); active = well fitted falling curve; inconclusive = weaker or top-dose-only fall, or a rising curve; inactive = flat or poorly fitted curve;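 note: top concentration of the series not given in the record; excess ADP was the control for the full effect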
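Purified YjeE (10 uM) with BODIPY Texas Red-labeled ADP probe (2 uM); compounds pin-transferred, 15 min at room temperature. Binding inhibition read as decreased fluorescence polarization; ADP titration as control.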
PK Bst – Pyruvate Kinase | Potency, µM | actives 1.2% (n = 51,000) | partly purified Bacillus stearothermophilus pyruvate kinase, luminescence ATP production; ribose 5-phosphate activator present at AC10 | AID 361, 2006; in the data active means potency below about 11 µM; inconclusive means mostly about 12 µM to 25 µM; inactive means weaker than that;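 the screen sought inhibitors and activators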;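 note: potency is the fitted concentration of half-maximal effect; scaled between full activation by ribose 5 phosphate and full inhibition by luteolin; about four in five hits inhibit and the cells do not say which; series up to 57 µM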
Active calls of the source: *. An excerpt, so the mix of outcomes need not match the whole.

For CS(=O)(=O)N1CCC2(CC1)CN(c1ccc(-c3ccccc3)cc1)C2 the results were TsaE inh inactive.
O=C(CSc1nnnn1-c1ccc2c(c1)CCC2)Nc1ccc2c(c1)OCCO2 was read as TsaE inh inactive and PK Bst >57.
NC(=O)CSCc1ccc(Br)cc1 was read as TsaE inh inactive and PK Bst >57.
`O=S(=O)(c1ccc(Br)cc1)N1CCN(c2cc(-c3ccccc3)nc3ncnn23)CC1` gave TsaE inh inactive and PK Bst >57.
`CCn1c(=O)cc(SCC(=O)N2CCN(C3CCCCC3)CC2)c2ccccc21` gave TsaE inh inactive and PK Bst >57.
For COc1cccc(-c2ccc3ncnc(NCc4ccccc4OC)c3c2)c1 the results were TsaE inh inactive.
For Cc1ccc(N2CC(C(=O)Nc3ccc4c(c3)OCO4)CC2=O)cc1 (stereo not drawn) the results were TsaE inh inactive and PK Bst >57.
`COc1ccc(-c2nnc(SCC(=O)Nc3cc(F)ccc3C)o2)cc1` gave TsaE inh inactive.
For CCN(CC)CC(=O)Nc1c(C)cc(C(C)(C)C)cc1C the results were TsaE inh inactive and PK Bst >57.
COc1ccccc1-n1c(C)nnc1SCC(=O)Nc1cc(C)cc(C)c1 was read as TsaE inh inactive and PK Bst >57.
Screening O=C(Cn1cnc2c(nnn2Cc2ccc(Cl)cc2)c1=O)NCC1CCCO1 (stereo not drawn) returned TsaE inh inactive and PK Bst >57.
CC[C@H](C)C(=O)O[C@H]1CCC=C2C=C[C@H](C)[C@H](CC[C@@H]3C[C@H](O)CC(=O)O3)[C@H]21 was read as TsaE inh inactive.
CN1CCN(CC(=O)N2c3ccccc3C(C)(c3ccccc3)CC2(C)C)CC1 (stereo not drawn) was read as TsaE inh inactive.
Screening O=C(NC1CCCCC1)n1c(=O)oc2ccc(Cl)cc21 returned TsaE inh inactive and PK Bst >57.
Screening CCOc1ccccc1NC(=O)N1CCC(NC(=O)c2cccc(C)c2)CC1 returned TsaE inh inactive and PK Bst >57.
For O=C(CSc1cccc[n+]1[O-])c1cc2ccccc2o1 the results were TsaE inh inactive and PK Bst >57.
O=C(Cc1cccs1)Nc1ccc(NC(=O)c2ccco2)cc1 was read as TsaE inh inactive and PK Bst >57.
`CC1(C)CC(=O)c2cc(C(=O)N3CCCC(C)(C)C3)c(=O)n(-c3ccccc3)c2C1` gave PK Bst >26.
`COc1ccc(Oc2ncc3nc(-c4ccc(Cl)cc4)c(=O)n(C[C@H]4CCCO4)c3n2)cc1` gave TsaE inh inactive.
Screening N#Cc1sc2nc(-c3ccccc3)cc(-c3ccco3)c2c1N returned TsaE inh inactive and PK Bst inconclusive.
`CC(=O)NC(CCS(C)(=O)=O)C(=O)Nc1ccc(F)cc1Cl` (stereo not drawn) gave TsaE inh inactive and PK Bst >57.
Screening CC1=C(C(N)=O)C(c2ccccn2)n2nc(SCc3ccccc3)nc2N1 (stereo not drawn) returned TsaE inh inactive and PK Bst >57.
`CC1Cc2ccccc2N1C(=O)CSc1nnc(Cn2nnc3ccccc32)n1C` (stereo not drawn) gave TsaE inh inactive and PK Bst >57.
For Cc1ccc(C(C)C)c(OCc2nnc(SCC(=O)Nc3ncc(C)s3)n2C)c1 the results were TsaE inh inactive and PK Bst >57.
For CCOc1ccccc1C(=O)Nc1nncs1 the results were TsaE inh inactive.
Screening O=C(CSc1nc2ccccc2s1)Nn1cnnc1 returned PK Bst >26.
Screening Cc1cccc(C)c1O returned TsaE inh inactive.
`CC(C)c1ccc(C(=O)Nc2ccc(N3CCOCC3)cc2)cc1` gave TsaE inh inactive.
`O=C(O)CCCCCNCc1ccncc1` gave TsaE inh inactive and PK Bst >57.
CCOC(=O)c1c(C)oc2c(CN3CCN(C)CC3)c(Br)c(OC)c(O)c12 was read as TsaE inh inactive and PK Bst >57.
CCc1ccc(C(C)NC(=O)c2cc(C)oc2C)cc1 (stereo not drawn) was read as TsaE inh inactive and PK Bst >57.
For CCOC(=O)c1[nH]c(C)c(C(=O)Nc2cc(Cl)ccc2C)c1C the results were TsaE inh inactive and PK Bst >57.
CCOC(=O)C(C)n1cnc2c(nnn2-c2ccc(C)cc2)c1=O (stereo not drawn) was read as TsaE inh inactive and PK Bst >57.
CC(C)n1c(CCCO)nc2ccccc21 was read as TsaE inh inactive.
For O=c1cc(CSc2ccc(Cl)cc2)nc(N2CCOCC2)[nH]1 the results were TsaE inh inactive and PK Bst >57.
Screening CCOCCn1c(=O)c2c(nc3n2CCN3c2ccc(CC)cc2)n(C)c1=O returned TsaE inh inactive and PK Bst >57.
For CC1CCCCN1C(=O)N[C@@H](Cc1ccccc1)C(=O)O (stereo partly drawn) the results were TsaE inh inactive and PK Bst >57.
Screening Cc1noc(C)c1COC(=O)c1ccccc1Oc1ccccc1 returned TsaE inh inactive and PK Bst >57.
For COc1ccc(Nc2ncccc2C(=O)Nc2ccccc2)cc1 the results were TsaE inh inactive and PK Bst >57.
For Cc1noc(C)c1C(=O)N1CCC[C@@]2(CCN(C(=O)NC(C)C)C2)C1 the results were TsaE inh inactive.
Screening CCCn1c(CN(Cc2ccccc2)Cc2ccccc2)nc2c1c(=O)n(C)c(=O)n2C returned TsaE inh inactive.
CCCCc1cc(=O)oc2cc(C)c(CN3CCCC3)c(O)c12 was read as TsaE inh inactive and PK Bst >57.
Nc1nnc(C2CCCC2)s1 was read as TsaE inh inactive.
For O=C(CN1CCN(C(=O)c2ccco2)CC1)Nc1ccc2c(c1)OCCO2 the results were TsaE inh inactive and PK Bst >57.
Cc1cccc(OCCCCc2c(C)n[nH]c2C)c1C was read as TsaE inh inactive.
For Cc1cc(=O)oc(C)c1C(=O)Nc1cccc2nonc12 the results were PK Bst >11.
Screening CCOC(=O)c1cnc(SCC(=O)Nc2ccc(NC(=O)CC)c(OC)c2)nc1N returned TsaE inh inactive and PK Bst >57.
Screening COCCNC(=O)C(c1ccco1)N(C(=O)Cn1nnc2ccccc21)c1ccc(C)cc1C (stereo not drawn) returned TsaE inh inactive and PK Bst >57.
`COc1c(C)cc(Br)cc1C(=O)NCc1cccnc1` gave TsaE inh inactive and PK Bst >57.
`CCCCOC(=O)c1cc2c(cn1)[nH]c1ccccc12` gave TsaE inh inactive.
`C=CCn1c(SCC(=O)Nc2cc(C)cc(C)c2)nnc1-c1cnccn1` gave TsaE inh inactive and PK Bst >57.
CC1CCC(NC(=O)C2(C)CCC(=O)N2Cc2cccnc2)CC1 (stereo not drawn) was read as TsaE inh inactive.
Screening COC(=O)c1ccc(C(NC(=O)OCc2ccccc2)/C(=C/[C@@H](C)C(=O)NCCF)c2cccnc2)cc1 (stereo partly drawn) returned TsaE inh inactive.
Screening COc1cccc(CN(Cc2cccnc2)S(=O)(=O)c2ccc(-n3cnnn3)c(C)c2)c1 returned TsaE inh inactive and PK Bst >57.
`CCCc1cc(Nc2cccc(OCC)c2)n2ncnc2n1` gave TsaE inh inactive and PK Bst >57.
For CCC(C)[C@H](NC(=O)Nc1ccc2c(c1)OCCO2)C(=O)O (stereo partly drawn) the results were TsaE inh inactive and PK Bst >57.
`Cc1cc(C)n(CC(=O)NC2CCCCC2)n1` gave TsaE inh inactive and PK Bst >57.
`O=C(OCn1nnc2ccccc2c1=O)c1ccc2c(=O)n3c(nc2c1)CCC3` gave TsaE inh inactive and PK Bst >57.
Screening COc1ccc(CN(C2CCCC2)S(=O)(=O)c2ccc(-n3cnnn3)cc2)cc1OC returned TsaE inh inactive and PK Bst >57.
Screening Cc1cc(NS(=O)(=O)c2ccc(Nc3nc(-c4sc(N)nc4C)cs3)cc2)no1 returned TsaE inh inactive.
`COC(=O)c1ccccc1S(=O)(=O)Nc1ccc2cn[nH]c2c1` gave TsaE inh inactive and PK Bst >57.
`O=C(Nc1ccc2oc(-c3ccccc3F)nc2c1)c1ccc2c(c1)OCCO2` gave TsaE inh inactive.
For O=C(Cn1c(C2CC2)nc2ccccc2c1=O)Nc1ccc(Br)cc1 the results were TsaE inh inactive and PK Bst >57.
CC1CC1C(=O)OCc1cc(=O)n2cc(Br)ccc2n1 (stereo not drawn) was read as TsaE inh inactive and PK Bst inactive.
For COC(=O)Cc1c[nH]c2ccc(OCC(O)CNC(C)C)cc12 (stereo not drawn) the results were TsaE inh inactive and PK Bst >57.
CCOC(=O)c1cnc(SCC(=O)N2CCN(C(=O)c3ccco3)CC2)nc1N was read as TsaE inh inactive and PK Bst >57.
`CC(C)c1ccc(OCc2ccc(C(=O)N3CCN(c4ccccn4)CC3)cc2)cc1` gave TsaE inh inactive and PK Bst >57.
`Cc1ccccc1-c1nnc(SCc2ccccc2)o1` gave TsaE inh inactive and PK Bst >57.
c1ccc2c(c1)ncn2Cc1nnc2sc(-c3ccc4c(c3)OCO4)nn12 was read as TsaE inh inactive and PK Bst >57.
For C(=C\c1ccco1)/C=N/n1cnnc1 the results were TsaE inh inactive and PK Bst >57.
COc1ccc(OC(=O)c2cccc(S(=O)(=O)N3CCCC3)c2)cc1 was read as TsaE inh inactive and PK Bst >57.
Screening O=C(CSc1nnc(-c2ccc(Br)cc2)n1C1CCCCC1)N1CCCC1 returned TsaE inh inactive and PK Bst >57.
`COc1ccc(C(=O)CSc2nc(SC)ns2)cc1OC` gave TsaE inh inactive and PK Bst >57.
`O=C(CN1CCOCC1)N1CCN(C(=O)CN2CCOCC2)CC1` gave TsaE inh inactive and PK Bst >57.
COC(=O)c1ccc(C(=O)OC)c(NC(=O)CCC(=O)O)c1 was read as TsaE inh inactive.
Screening Cn1nnnc1SCc1cc(=O)[nH]c2ccccc12 returned TsaE inh inactive and PK Bst >57.
CC(C)(C#N)Nn1cnnc1 was read as TsaE inh inactive and PK Bst >57.
For COCCNC(=O)CSc1nc2c(n1-c1ccccc1)CCCC2 the results were TsaE inh inactive and PK Bst >57.
`CCOC(=O)CC(N)c1ccc(OC)cc1` (stereo not drawn) gave TsaE inh inactive and PK Bst >57.
Screening Cc1ccccc1S(=O)(=O)Cc1ccc(C(=O)NCCN2CCN(Cc3ccccc3)CC2)o1 returned TsaE inh inactive and PK Bst >57.
`COc1ccc(C2NCCO2)cc1OC` (stereo not drawn) gave TsaE inh inactive and PK Bst >57.
Screening COc1ccc2[nH]cc(CCNc3ncncc3-c3c(C)noc3C)c2c1 returned TsaE inh inactive.
`CC12CC(NC(=O)N1c1cccc(C(=O)Nc3ncn[nH]3)c1)c1ccccc1O2` (stereo not drawn) gave TsaE inh inactive and PK Bst >57.
Screening CC(C)(C)NC(=O)C(c1ccc(F)cc1)N(Cc1ccco1)C(=O)c1csnn1 (stereo not drawn) returned TsaE inh inactive and PK Bst >57.
Screening COc1cccc(-c2cnc(NCc3cc(Cl)ccc3O)n2C)c1 returned TsaE inh inactive and PK Bst >57.
`CCC(=O)Nc1ccc(S(=O)(=O)Nc2cccnc2)cc1` gave TsaE inh inactive and PK Bst >57.
Screening Cc1cccc(Nc2ncnc3ccccc23)c1 returned PK Bst >26.
Screening Cc1nc2ccc(S(=O)(=O)NCC(=O)N(C)Cc3ccco3)cc2s1 returned TsaE inh inactive and PK Bst >57.
COc1ccccc1NC(=O)N(Cc1ccco1)Cc1cc2cc(C)cc(C)c2[nH]c1=O was read as TsaE inh inactive.
`CCCc1cc(=O)oc2c(CN3CCN(C)CC3)c(O)c(Cl)cc12` gave PK Bst >11.
`COC(=O)Cc1c(C)c2c(O)cc(C)cc2oc1=O` gave TsaE inh inactive.
For COc1ccccc1S(=O)(=O)Cc1ccc(C(=O)N2CCN(c3ccccc3)CC2)o1 the results were TsaE inh inactive and PK Bst >57.

Compounds shown so far with a furan ring, fused or not (14):
For O=C(CSc1cccc[n+]1[O-])c1cc2ccccc2o1 the results were TsaE inh inactive and PK Bst >57.
O=C(Cc1cccs1)Nc1ccc(NC(=O)c2ccco2)cc1 was read as TsaE inh inactive and PK Bst >57.
Screening N#Cc1sc2nc(-c3ccccc3)cc(-c3ccco3)c2c1N returned TsaE inh inactive and PK Bst inconclusive.
CCOC(=O)c1c(C)oc2c(CN3CCN(C)CC3)c(Br)c(OC)c(O)c12 was read as TsaE inh inactive and PK Bst >57.
CCc1ccc(C(C)NC(=O)c2cc(C)oc2C)cc1 (stereo not drawn) was read as TsaE inh inactive and PK Bst >57.
For O=C(CN1CCN(C(=O)c2ccco2)CC1)Nc1ccc2c(c1)OCCO2 the results were TsaE inh inactive and PK Bst >57.
Screening COCCNC(=O)C(c1ccco1)N(C(=O)Cn1nnc2ccccc21)c1ccc(C)cc1C (stereo not drawn) returned TsaE inh inactive and PK Bst >57.
CCOC(=O)c1cnc(SCC(=O)N2CCN(C(=O)c3ccco3)CC2)nc1N was read as TsaE inh inactive and PK Bst >57.
For C(=C\c1ccco1)/C=N/n1cnnc1 the results were TsaE inh inactive and PK Bst >57.
Screening Cc1ccccc1S(=O)(=O)Cc1ccc(C(=O)NCCN2CCN(Cc3ccccc3)CC2)o1 returned TsaE inh inactive and PK Bst >57.
Screening CC(C)(C)NC(=O)C(c1ccc(F)cc1)N(Cc1ccco1)C(=O)c1csnn1 (stereo not drawn) returned TsaE inh inactive and PK Bst >57.
Screening Cc1nc2ccc(S(=O)(=O)NCC(=O)N(C)Cc3ccco3)cc2s1 returned TsaE inh inactive and PK Bst >57.
COc1ccccc1NC(=O)N(Cc1ccco1)Cc1cc2cc(C)cc(C)c2[nH]c1=O was read as TsaE inh inactive.
For COc1ccccc1S(=O)(=O)Cc1ccc(C(=O)N2CCN(c3ccccc3)CC2)o1 the results were TsaE inh inactive and PK Bst >57.
